LT uptake inh: blocks cellular internalization of anthrax lethal toxin. actives 0.67% (n = 70,000). Potency, µM (doses to about 40 µM), for the others: top-dose activity change, negative = inhibition, hits mostly inhibitors. Cells, anthrax lethal toxin internalization, FRET ratio (460/530); active = well fitted falling ratio curve with the 530 nm signal flat; inconclusive = other ratio curves, or a change in one channel alone; inactive = flat curves in the ratio and both channels; the % refers to the ratio; note: % is set by controls: 0 for no effect and ±100 for the full control effect; nearly all actives have a fitted effect of over 50% in size; tested in ME-180 cells; beta-lactamase reporter
Prx2 Sm inh: Schistosoma mansoni Prx2 inhibition. actives 0.07% (n = 65,000). Potency, µM. S. mansoni Prx2 activity coupled to TGR/GSH (TGR is thioredoxin glutathione reductase), NADPH fluorescence loss, qHTS; some inactives read as strong as hits; active means full or partial inhibition curve with a strong effect at the top dose; inconclusive means weaker partial or single-point curve; inactive means no accepted curve; note: series up to 57 µM; many of its hits are not listed in these tables
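Purified S. mansoni TGR and Prx2 in pH 7.4 phosphate buffer with EDTA and Tween-20 were preincubated with compounds for 15 min. Further NADPH/GSH was added, then a 2.5 mM H2O2 aliquot initiated turnover, followed kinetically by NADPH fluorescence.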
Starred values were filed as active, the others as inactive; ? = inconclusive; / = no result given; [ ] = dose if it differs, or a comment. Potency is the fitted concentration of half-maximal effect.

SMILES | LT uptake inh | Prx2 Sm inh
COC(=O)Nc1ccc(OCc2ccccc2)cc1 | -20% | >57
CCc1cccc2c(-c3ccccc3)c3c(nc12)OCC3 | -2% | >57
Cc1nc(NC(C)C)c2oc3ccccc3c2n1 | -2% | >57
CSc1ccccc1NC(=O)COc1ccc(S(=O)(=O)N2CCCC2)cc1 | -9% | >57
CCSc1nnc2c(n1)OC=Nc1ccc(Br)cc1-2 | 14% | >57
Cc1ccc(C(=O)N(CC(=O)NC2CCCC2)Cc2cccs2)s1 | -8% | >57
CCc1ccccc1NC(=O)c1cc(-c2cccc(O)c2)on1 | -9% | >57
CCC(=O)N1CCN(C(C)=O)C1c1ccccc1 (centres undefined) | ? | >57
O=C(CSc1oc(-c2ccco2)nc1S(=O)(=O)c1ccc(Cl)cc1)NCC1CCCO1 (centres undefined) | 14% | >57
COCCOC(=O)C1=C(N)OC2=C(C(=O)CC(C)(C)C2)C1c1cccnc1 (centres undefined) | -1% | >57
CCOC(=O)c1c(C)n(C)c2ccc(OCC(O)CN3CCN(C)CC3)cc12 (centres undefined) | 20% | >57
CCC(C)N(C(=O)c1csnn1)C(C(=O)NCc1ccc(F)cc1)c1ccco1 (centres undefined) | -16% | >57
COC(=O)[C@H]1C[C@@H]1[C@H](NC(=O)c1cccnc1)c1ccccc1 | -4% | >57
O=C(NO)C1CC2C=CC1C2 (centres undefined) | 4% | >57
[N-]=[N+]=CC(=O)CNC(=O)[C@@H](Cc1ccccc1)N1C(=O)c2ccccc2C1=O | ? | >57
CC1=NC(C)Cc2ccccc21 (centres undefined) | 3% | >57
COc1ccccc1CN1CCCC2(CCN(C(C)=O)CC2)C1 | 3% | >57
Cc1ccc(N(C(=O)Cn2nnc(-c3ccc(C)o3)n2)C(C(=O)NC2CCCC2)c2ccco2)cc1 (centres undefined) | 4% | >57
N=C(c1ccc2ccccc2c1)c1ccccc1Cc1ccccc1 | ? | >57
CCCn1c(-c2ccc(F)cc2)nc2c(NCCN3CCSCC3)nc(C)nc21 | -7% | /
Cc1ccc(C(=O)c2coc3ccc(O)c(CN4CCN(C)CC4)c23)cc1 | -22% | >57
COc1ccc(NC(=O)c2cc3ccccn3n2)cc1 | ? | >57
CN(C)CCCn1c2c3ccccc3ccc2c2oc(=O)c3ccccc3c21 | ? | >57
CCCS(=O)(=O)N1CCCC(C(=O)N2CCC(Cc3ccccc3)CC2)C1 (centres undefined) | -3% | >57
CC1(C)[C@@H]2CC[C@@]1(CS(=O)(=O)Nc1ccccc1)C(=O)C2 | ? | >57

6 compounds drawn at random from those above, as already listed:
SMILES | LT uptake inh | Prx2 Sm inh
CCSc1nnc2c(n1)OC=Nc1ccc(Br)cc1-2 | 14% | >57
COC(=O)[C@H]1C[C@@H]1[C@H](NC(=O)c1cccnc1)c1ccccc1 | -4% | >57
O=C(CSc1oc(-c2ccco2)nc1S(=O)(=O)c1ccc(Cl)cc1)NCC1CCCO1 (centres undefined) | 14% | >57
N=C(c1ccc2ccccc2c1)c1ccccc1Cc1ccccc1 | ? | >57
Cc1ccc(C(=O)N(CC(=O)NC2CCCC2)Cc2cccs2)s1 | -8% | >57
CCCn1c(-c2ccc(F)cc2)nc2c(NCCN3CCSCC3)nc(C)nc21 | -7% | /

The list goes on.
SMILES | LT uptake inh | Prx2 Sm inh
Nc1nonc1-c1nc2ccccc2[nH]1 | -7% | >57
Cc1ccc(S(=O)(=O)NC(CC(=O)O)c2ccco2)cc1 (centres undefined) | -11% | >57
N#Cc1nc(-c2ccco2)oc1NCCN1CCOCC1 | / | >57
COc1ccc(S(=O)(=O)CCC(=O)N2CC(=O)N(CCc3ccccc3)C(=O)C2)cc1 | 2% | >57
COc1ccc2c(Cl)c(-c3nnc(SCC(N)=O)n3C)sc2c1 | 13% | >57
CS(=O)(=O)N1CCC2(CCCN(c3ccncc3)C2)CC1 | ? | >57
COCCn1c(=O)c(-c2cc(F)cc(F)c2)nc2cnc(Nc3cccc(OC)c3)nc21 | ? | >57
COc1ccc(C(c2sc3ncnn3c2O)N2CC(C)OC(C)C2)cc1OC (centres undefined) | -4% | >57
Cn1c(=O)c2c(nc(Br)n2CCc2ccccc2)n(C)c1=O | 10% | >57
COC(=O)c1ccc(OCC2c3cc(OC)c(OC)cc3CCN2C(=O)C2CC2)cc1 (centres undefined) | -11% | /
N#CC1=C2C=CC=CN2CC1=O | ? | >57
Cc1cccc2c1N(CC(=O)OC(C)C)C(=O)C2=O | 11% | >57
COCCn1c(SCc2ccc(C(=O)OC)o2)nc2ccccc2c1=O | ? | >57
Cc1ccccc1-n1nc2c(c1NC(=O)c1cc3ccccc3oc1=O)CS(=O)(=O)C2 | 3% | >57
CCOc1ccccc1N1CCN(S(=O)(=O)c2ccc(F)c(F)c2)CC1 | ? | >57
CCCCN(CC)C(=O)CSc1cc(=O)n(C)c2ccccc12 | 6% | >57
O=C(c1cc2nc(-c3ccccc3)cc(-c3ccccc3)n2n1)N1CCC2(CC1)OCCO2 | ? | >57
COc1ccc(N(C)C(=O)CCS(=O)(=O)c2cccc3nonc23)c(OC)c1 | 0% | >57
COc1cc(NS(=O)(=O)c2ccc(C)cc2C)cc(OC)c1OC | -13% | >57
CS(=O)(=O)N1CCN(c2nc3ccccc3s2)CC1 | -3% | >57
COCCNc1nc(-c2ccoc2)nc2ccccc12 | -5% | >57
Cc1ccc(S(=O)(=O)NCC(C)NS(=O)(=O)c2ccc(C)cc2)cc1 (centres undefined) | -6% | >57
O=C(CN1CCOCC1)Nc1ccc(NC(=O)CN2CCOCC2)c(Cl)c1 | -2% | >57
COc1cccc(C2=NOC(C(=O)N3CCN(C(=O)c4ccco4)CC3)C2)c1 (centres undefined) | 4% | >57
Cc1ccc(NC(=O)COC(=O)C2=COCCO2)cc1 | -1% | /

Entries listed so far that have bromine (two):
SMILES | LT uptake inh | Prx2 Sm inh
CCSc1nnc2c(n1)OC=Nc1ccc(Br)cc1-2 | 14% | >57
Cn1c(=O)c2c(nc(Br)n2CCc2ccccc2)n(C)c1=O | 10% | >57

New compounds follow:
SMILES | LT uptake inh | Prx2 Sm inh
C(=C\CSc1ncn[nH]1)/CSc1ncn[nH]1 | 0% | >57
O=C(CSc1oc(-c2ccccc2)nc1S(=O)(=O)c1ccc(F)cc1)NCC1CCCO1 (centres undefined) | 3% | >57
CN(c1ccc(C(=O)NCc2ccc3c(c2)OCO3)cc1)S(C)(=O)=O | / | >57
Cn1c(CN2CCOCC2)c(C#N)c2ccccc21 | -14% | >57
O=C(CSC1=NCCS1)N1CCc2ccccc21 | -14% | >57
CCS(=O)(=O)N1CCCC(C(=O)NCCN2CCC(Cc3ccccc3)CC2)C1 (centres undefined) | 0% | >57
CCOC(=O)CSc1nnc(-c2ccco2)n1-c1ccc(C)cc1 | 7% | >57
Nc1nnc(SCC(=O)NCc2ccc3c(c2)OCO3)s1 | -10% | >57
CSc1nnc(-c2ccccc2Cl)n1N | 9% | >57
COc1cc2[nH]c(=S)nc(NCC3CCCO3)c2cc1OC (centres undefined) | -8% | >57
O=C(CC1Nc2ccccc2NC1=O)NCc1cccnc1 (centres undefined) | -1% | >57
OC(CN1CCN(c2ccccc2)CC1)c1c[nH]c2ccccc12 (centres undefined) | / | >57
CCC/C=C(\CCC)C(NC(=O)Cc1ccccc1)c1ccc(C(=O)OC)cc1 (centres undefined) | -4% | >57
CC(NC(=O)c1csc2ccccc12)C1CCCO1 (centres undefined) | 5% | >57
Cc1ccc(S(=O)(=O)N2CCN(C(=O)CSc3nnc(-c4ccco4)o3)CC2)cc1 | 0% | >57
O=C(c1c(O)c2ccc(Cl)cc2[nH]c1=O)C1CC1 | -9% | >57
CCNc1nc(NC(C)(C)C)nc(N(C#N)CC)n1 | 4% | >57
COc1ccc(CC(CC(=O)O)C(=O)Nc2ccccc2)cc1 (centres undefined) | -6% | >57
C=CCOC(=O)C(C(C)=O)C(NC(=O)OC)c1cccs1 (centres undefined) | ? | /
CNc1ncncc1-c1ccccc1CN(C)C | -6% | >57
CCCCSc1nnc(-c2cc(Br)ccc2N)c(=O)[nH]1 | -12% | >57
O=C(OCc1nnc(-c2ccccc2)o1)c1ccc2c(c1)OCO2 | 20% | >57
COc1ccc(/C=N/n2cnnc2)cc1COc1ccccn1 | 2% | >57
O=[N+]([O-])c1ccc(Cl)c(CNc2ncnc3c2ncn3[C@@H]2CCCCO2)c1 | ? | >57
CN(CC(=O)Nc1sccc1C#N)C1CCCCC1 | 0% | >57
SMILES | LT uptake inh | Prx2 Sm inh
O=C(NCc1ccncc1)Nc1ccc(F)cc1 | -4% | >57
COc1cccc(Nc2ncc3nc(-c4cn(C)c5ccccc45)c(=O)n(CCC#N)c3n2)c1 | ? | >57
Cc1ccccc1NS(=O)(=O)c1ccc2[nH]cc(C(=O)NCCCN3CCOCC3)c(=O)c2c1 | 11% | >57
CC(C)CCNC(=O)C1CCN(c2nc3ccccc3o2)CC1 | -8% | >57
O=C(Nc1cccnc1)c1ccccc1Oc1ccccc1 | ? | >57
Cc1ccc(-c2nc(CS(=O)CC(=O)NCCN3CCOCC3)c(C)o2)cc1 (centres undefined) | -4% | >57
c1ccc(-c2noc(CN3CCN(c4ccccc4)CC3)n2)cc1 | -25% | >57
COc1cccc(S(=O)(=O)NCc2ccc(C(=O)NCc3ccco3)cc2)c1 | 5% | >57
O=C(NCCCO)c1nc2ccccc2s1 | 2% | >57
Cc1noc(C)c1COC(=O)c1cccc(S(=O)(=O)N2c3ccccc3CC2C)c1 (centres undefined) | -16% | >57
COc1ccc(O)c(-c2c(-c3ccc(Cl)cc3)n[nH]c2C)c1 | / | >57
O=C(c1nnc(Cc2ccc(Cl)cc2)o1)N1CCc2ccccc2C1 | ? | >57
COc1ccc(Cl)cc1NC(=O)c1cnc2n(c1=O)CCS2 | 22% | >57
CCOc1ccc2cc(C#N)c(SCC(=O)N3CCCC3)nc2c1 | -9% | >57
FC(F)(F)c1cc(CO[C@H]2CCCN[C@H]2c2ccccc2)cc(C(F)(F)F)c1 | -6% | >57
Clc1ccc2c(c1)c1ccccc1n2CN1CCOCC1 | -15% | >57
O=C(O)CSc1ccccc1C(=O)O | 6%[8 µM] | >57
C=CCNC(=O)CNS(=O)(=O)c1ccc(F)cc1 | -7% | >57
CCOC(=O)c1c(C)[nH]c(C(=O)COC(=O)C2CC(=O)N(Cc3ccccc3)C2)c1C (centres undefined) | -7% | >57
Cc1ccc(C(=O)OCc2cc3ccccc3[nH]c2=O)cc1 | -5% | >57
O=C1Nc2ccccc2C1=Nc1ccc(S(=O)(=O)Nc2nccs2)cc1 | -4%[8 µM] | >57
N#Cc1c(N)nc(SC2CCCCC2=O)c(C#N)c1-c1ccco1 (centres undefined) | -14% | >57
COC(=O)c1cc(S(=O)(=O)NC2CCN(Cc3ccccc3)CC2)cn1C | 0% | >57
CC(C)NP(=O)(NC(C)C)OP(=O)(NC(C)C)NC(C)C | 9% | >57
CCOC(=O)N1CCC(N2Cc3cccc(C(=O)N4CCN(C5CCCCC5)CC4)c3C2=O)CC1 | 9% | >57

Compound profiles, from the list above. Order of values: LT uptake inh, Prx2 Sm inh
FC(F)(F)c1cc(CO[C@H]2CCCN[C@H]2c2ccccc2)cc(C(F)(F)F)c1 in the list: -6%, >57
C=CCNC(=O)CNS(=O)(=O)c1ccc(F)cc1 in the list: -7%, >57
Cc1ccccc1NS(=O)(=O)c1ccc2[nH]cc(C(=O)NCCCN3CCOCC3)c(=O)c2c1 in the list: 11%, >57

The main list resumes with the two entries that preceded the break.
SMILES | LT uptake inh | Prx2 Sm inh
CC(C)NP(=O)(NC(C)C)OP(=O)(NC(C)C)NC(C)C | 9% | >57
CCOC(=O)N1CCC(N2Cc3cccc(C(=O)N4CCN(C5CCCCC5)CC4)c3C2=O)CC1 | 9% | >57
Cc1n[nH]c(=S)n(/N=C/c2ccccn2)c1=O | 12% | /
Cc1cc(NC(=O)c2cc(S(=O)(=O)N3CCCCC3)ccc2C)n(-c2ccccn2)n1 | 10% | >57
O=C(O)[C@H]1CCN1 | -18% | >57
Cc1cccc(Br)c1 | -12% | /
COc1ncc2nc(C)c(=O)n(Cc3cccs3)c2n1 | 3% | >57
Cn1c(C(=O)NCc2cccs2)cc2c(=O)n(C)c3ccccc3c21 | -7% | >57
COc1ccc(-n2cnnc2SCc2ncc(-c3ccccc3)o2)cc1 | 8% | >57
CCOc1ccc(Cc2nnc(N)s2)cc1OCC | ? | >57
CCCS(=O)(=O)N1CCC(C(=O)NCCCN(CC)c2cccc(C)c2)CC1 | 10% | >57
COc1ccc(N(C(=O)Cn2nnc3ccccc32)C(C(=O)NCc2ccco2)c2ccc(C)o2)cc1 (centres undefined) | 1% | >57
Cc1ccc2nc3nc4ccc[nH]c4cc3c2c1 | -3%[8 µM] | /
COC(=O)C1(CC(C)C)C=C2C(=C(C(C)C)C(=O)C2C)CN1 (centres undefined) | ? | >57
Cc1onc(-c2ccccc2)c1C(=O)Nc1nc(-c2ccc(F)c(F)c2)cs1 | ? | >57
CSc1nc2ccccc2n1CC(=O)Nc1c(C)n(C)n(-c2ccccc2)c1=O | -8% | >57
COc1ccccc1-n1c(SCC(=O)N2CCOCC2)nc(O)c(Cc2ccccc2)c1=O | 17% | >57
O=C(NCCCN1CCN(c2cccc(Cl)c2)CC1)C1CCC(=O)N1Cc1ccccc1Cl (centres undefined) | 0% | >57
Nn1c(SCC(=O)Nc2ccc(Oc3ccccc3)cc2)nnc1C1CC1 | 7% | >57
NC(=O)c1cccc2c(=O)oc3ccccc3c12 | -18% | >57
Cc1ccc(CNC(=O)Cn2ccc3ccccc3c2=O)o1 | 16% | >57
Cc1nc2sc3c(c2c2nc(-c4ccco4)nn12)CCCC3 | ? | >57

Some of the compounds tested (hit frequency here may not be typical).
